Ba CapD inh = Bacillus anthracis CapD inhibitors, primary screen, biochemical, fluorescence intensity | CapD gamma-glutamyltranspeptidase (Bacillus anthracis Ames Ancestor) | hit rate 0.23% among 140,000 | purified CapD enzyme, fluorescence intensity read-out; hits give low values; some hits fall short of the stated cut | z-score (concentration not given with the values);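 active = z-score under -4 in either of two replicates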;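 note: stock transfer was 100 nL into about 40 µL; score is relative to mean and spread of the plate; one replicate is shown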
AID504770 = growth inhibition of E. coli YBA685, primary screen, V. cholerae RctB inhibitors; AID 504770, 2011; hit rate 0.27% among 130,000; E. coli YBA685 rctB-dependent plasmid, OD600 growth, 3 h; hits give low values; z-score (concentration not given with the values);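 active = z-score under -2 on both plates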;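 note: wells of about 30 µL received 100 nL stock; score is relative to mean and SD of the test wells; the first replicate is given; strong numbers were not always called active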
Active calls of the source: *; . = not tested or not shown.

SMILES	Ba CapD inh	AID504770
Cc1[nH]n(-c2ccccc2)c(=O)c1C(c1ccccc1)c1c(C)[nH]n(-c2ccccc2)c1=O	-0.73	.
O=C(Nc1ccccc1)N1CCCC2CCCCC21 (stereo not given)	0.51	0
O=C(c1cccc(NC(=O)N2CCSc3ncccc32)c1)N1CCC2(CC1)OCCO2	-0.2	0
O=C(Nc1nc(=S)ss1)c1ccccc1Cl	-1.4	-0.75
COc1ccc(CC(=O)OCC(=O)Nc2ccc3c(c2)OCCO3)cc1	.	-2.4
COc1c(Cl)cc(Cl)cc1-c1nnc2ccc3ccccc3n12	-0.29	.
Cn1c(CCCNC(=O)c2ccccc2)nc2ccccc21	-0.99	0.15
N#CN[n+]1ccc2ccccc2c1C(=O)c1ccc(Cl)cc1	-2.3	-0.8
O=C(CC1OCCN(Cc2ccccc2)C1=O)Nc1ccc2c(c1)OCCO2 (stereo not given)	-0.075	0.95
COc1ccc(CCN(Cc2nc(-c3ccccc3)no2)Cc2nc(-c3ccccc3)no2)cc1OC	-0.085	1.6
O=C(Nc1nccs1)c1cc(=O)c2ccccc2o1	-0.41	0.1
CCOC(=O)N1CCN(S(=O)(=O)c2ccc(C(=O)Nc3nc4ccc([N+](=O)[O-])cc4s3)cc2)CC1	-0.34	.
CCCCCCCc1c2c(C)c(C(=O)OCC)[nH]c2cc2[n+]1CC(C)=C2C	54	.
Cc1nc(C)c(S(=O)(=O)NCc2c(-c3ccccc3)noc2C)s1	-0.36	-0.4
NC(=O)C1CCN(S(=O)(=O)Cc2ccc(Cl)cc2)CC1	-0.16	-0.35
CC(=O)Oc1ccc2c(c1C)CCCC2	0.15	-0.85
CC(C)(C)c1ccc(CN2CCN(C(=O)OCC(Cc3ccccc3)N(Cc3ccccc3)Cc3ccccc3)CC2)cc1 (stereo not given)	-0.12	.
O=S(=O)(c1ccccc1)c1cc2ccccc2oc1=Nc1ccccc1	0.42	-0.2
Cc1c(C(=O)N2CCN(c3cccc(C(F)(F)F)c3)CC2)oc2ccccc12	0.63	-0.3
CN(C)S(=O)(=O)c1ccc(C(=O)N2CCN(Cc3nc4sc5c(c4c(=O)[nH]3)CCCC5)CC2)cc1	.	-0.2
CCCCn1c(COc2ccc(OC)cc2)nc2cc(S(=O)(=O)N3CCOCC3)ccc21	.	2
CCCN(Cc1ccc([N+](=O)[O-])cc1)C(=O)/C=C\C(=O)O	-0.29	.
COc1ccc(OC)c(Nc2nc3cc(C)ccc3cc2C)c1	2.8	0.1
CCNc1nc(NCC)nc(Nn2c(=S)[nH]c3sc4c(c3c2=O)CCCC4)n1	-0.58	.
CC(O)(CS(=O)(=O)c1ccccc1)C(=O)Nc1ccc(C(F)(F)F)cc1 (stereo not given)	-0.065	.
COC(=O)c1sccc1NC(=O)C1CC(C)=C(C)CC1C(=O)O (stereo not given)	0.45	-0.3
CCOC(=O)c1ccc(NC2CCCc3c2n(C)c2ccc(C)cc32)cc1 (stereo not given)	-0.78	2.1
COc1ccc(CC(=O)Nc2sccc2C#N)cc1	-0.61	-0.9
COC(=O)c1scc(S(=O)(=O)C(C)C)c1I	0.6	.
COc1ccc(CCN=Cc2ccc(Oc3nccc(C(F)(F)F)n3)cc2)cc1OC	0.43	-0.3
Cc1nn(S(=O)(=O)N2CCOCC2)c(C)c1Cl	.	0.55
O=C(CCSc1ccccc1)Nc1nnc(-c2ccccc2)o1	.	-0.2
Cn1c(SCc2ccccc2)nnc1-c1ccc2nonc2c1	-0.31	-0.65
CCOc1cc(C2Nc3ccccc3NC3=C2C(=O)CC(c2ccccc2)C3)ccc1OC(C)=O (stereo not given)	-0.67	.
O=C(c1ccoc1)N1CCN(c2ccccc2)CC1	-0.65	.
c1ccc2sc(COc3ncnc4sccc34)nc2c1	.	-0.05
c1ccc(-c2csc(N3CCc4ccccc43)n2)cc1	0.02	-0.45
Oc1ccc(-c2nc3c4ccccc4c4ccccc4c3[nH]2)cc1	40	.
O=C(Nc1sc2c(c1C(=O)Nc1ccccc1)CCCCC2)c1cccnc1	0.2	.
COc1cc(OC)c(OC)cc1/C=C1\N=C(c2ccc(-c3ccccc3)cc2)OC1=O	0.14	.
O=C1/C(=C/c2ccc(Cl)cc2)COC/C1=C\c1ccc(Cl)cc1	-0.76	-0.3
Cc1nc(-c2nnc(SCc3ccc(Cl)cc3)o2)cs1	0.19	-0.45
Cc1ccc2c(cnn2C(=O)CCCC(=O)O)c1	-0.1	0.4
CCOc1nc(Cl)nc(N2CCCCC2C)n1 (stereo not given)	0.26	-0.05
COC(=O)C1=C(C)OC(N)=C(C#N)C1c1cc([N+](=O)[O-])cs1 (stereo not given)	-0.86	.
CSc1nc(C)nc(Nc2cccc(C(F)(F)F)c2)c1C#N	1	-0.5
Cc1ccc(S(=O)(=O)CCc2nnc(NC(=O)CCCC(=O)Nc3cc(C)on3)s2)cc1	.	1.7
CCOC(=O)COc1cc(=O)n(CC)c2ccccc12	0.77	0
Cc1onc(-c2c(Cl)cccc2Cl)c1C(=O)N1CCN(c2ncnc3scc(-c4ccccc4)c23)CC1	-0.035	.
O=C(Nc1ccccc1)c1sccc1Oc1ccc([N+](=O)[O-])cc1F	-1.3	.
O=C(NCc1ccncc1)c1ccc(-n2cccn2)cc1	0.93	-0.45
CC(C)c1ccc(/C=N/NC(=O)CC2Sc3ccccc3NC2=O)cc1 (stereo not given)	0.39	.
CC(=O)Nc1ccc(/C=C2/C(=O)N=C(N)N2C)cc1	.	0.25
O=C1NCC(O)=C1/C=N/Nc1ccccc1	-4.4*	-4*
CCOC(=O)c1ccc(Cn2c3ccc([N+](=O)[O-])cc3c3nn4cc(-c5ccc(F)cc5)nc4nc32)o1	-0.085	.
COc1ccc(C(=O)CNC2=NCCC2)cc1	-0.15	1.5
CCOC(=O)C1C(=O)C=C(N2CCOCC2)CC1c1cccc(OC)c1 (stereo not given)	-0.21	-0.2
COc1cc(C(=O)N=C2C(C)=CC(=O)C=C2C)cc(OC)c1OC	0.02	-0.15
O=C(O)CCCSc1nc2ccccc2[nH]1	-0.17	-0.8
N#Cc1ccccc1CO/N=C/c1ccc(N2CCOCC2)cc1	.	0.1

Laid out differently: results already given
O=C(Nc1ccccc1)c1sccc1Oc1ccc([N+](=O)[O-])cc1F
  Ba CapD inh = -1.3; AID504770 = .
O=C1NCC(O)=C1/C=N/Nc1ccccc1
  Ba CapD inh = -4.4*; AID504770 = -4*

Later entries
SMILES	Ba CapD inh	AID504770
O=C(/C=C/c1c(Cl)nc2ccccn12)OCC1CCCO1 (stereo not given)	.	1.6
CCC(C)OC(=O)C1=C(C)NC2=C(C(=O)CC(c3ccc(OC)cc3)C2)C1c1ccc(OC(C)=O)cc1 (stereo not given)	5.1	.
Cc1ccc(-n2nnc3c(sc4nc(C)cc(C)c43)c2=O)cc1	0.53	0.55
COCC(Cc1ccccc1)NS(=O)(=O)c1cc(Cl)ccc1OC (stereo not given)	0.31	.
CCN1C(=O)/C(=C/c2ccc3c(c2)OCO3)OC1=S	0.17	-0.45
CCCc1cc(NCCc2ccccc2)n2c(nc3ccccc32)c1C#N	-0.33	0.1
Cn1c(=O)cc(SCC(=O)NCCN2CCN(c3cccc(Cl)c3)CC2)c2ccccc21	0.52	-0.3
CN1CCc2c(sc3nc(=S)[nH]c(N)c23)C1	.	-1.3
CCOc1ccc(C2C(N3C(=O)c4c(Cl)c(Cl)c(Cl)c(Cl)c4C3=O)C(=O)N2c2ccc(C)cc2)cc1 (stereo not given)	0.13	.
CCCNC1C2CC3CC(C2)CC1C3 (stereo not given)	-0.22	-0.3
CC1CCC(C(C)C)C(NC(=S)Nc2cccc(F)c2)C1 (stereo not given)	0.55	-0.75
CN(C)S(=O)(=O)c1ccc(Cl)c(C(=O)OCC(=O)C(C)(C)C)c1	.	-0.6
CC(=O)Nc1cccc(-c2nnco2)c1	-0.11	-2
CS(=O)(=O)Nc1ccc2c(c1)C(=O)NC2=O	-0.21	-0.65
Cn1c(-c2ccccn2)[n+](C)c2ccccc21	0.69	1.1

Fetched by structure from the entries so far:
SMILES	Ba CapD inh	AID504770
CCN1C(=O)/C(=C/c2ccc3c(c2)OCO3)OC1=S	0.17	-0.45
CCOc1ccc(C2C(N3C(=O)c4c(Cl)c(Cl)c(Cl)c(Cl)c4C3=O)C(=O)N2c2ccc(C)cc2)cc1 (stereo not given)	0.13	.
Cn1c(-c2ccccn2)[n+](C)c2ccccc21	0.69	1.1
CCCNC1C2CC3CC(C2)CC1C3 (stereo not given)	-0.22	-0.3
O=C(/C=C/c1c(Cl)nc2ccccn12)OCC1CCCO1 (stereo not given)	.	1.6
COCC(Cc1ccccc1)NS(=O)(=O)c1cc(Cl)ccc1OC (stereo not given)	0.31	.

Carrying on:
SMILES	Ba CapD inh	AID504770
O=C(COC(=O)[C@@H]1CCCN1C(=O)c1cccs1)Nc1ccccc1	.	-0.05
Cc1cc2nnc(SCCC(=O)O)n2c2ccccc12	.	0
Cc1cc(C(=O)CS(=O)c2cccc(C(F)(F)F)c2)cc(C)c1O (stereo not given)	-0.74	.
O=C1/C(=C/c2c(N3CCN(CCO)CC3)nc3ccccn3c2=O)SC(=S)N1C1CCCCC1	0.04	.
S=c1sc2c(N3CCCCCC3)ncnc2n1-c1ccccc1	-0.73	.
O=C(O)C1CCCCC1C(=O)N(Cc1ccccc1)Cc1ccccc1 (stereo not given)	0.17	0.65
O=C(OC/C=C/COCc1ccccc1)N1CCN(c2ncnc3sccc23)CC1	-1.3	.
Cc1cc(C)c(NC(=O)COC(=O)C(O)c2ccccc2)c(C)c1 (stereo not given)	.	0.45
CCNC(=O)N1c2ccc(CC)cc2C(C)=CC1(C)C	0.14	0.15
Cc1cccc(NC(=O)C2CC2c2ccccc2)c1 (stereo not given)	-0.6	.
c1nc(NCCCN2CCCCC2)c2[nH]cnc2n1	-0.79	0.45
CN1N=C(C(=O)Nc2nc3ccc(F)cc3s2)CCC1=O	.	1.1
COC(=O)C1CSCN1S(C)(=O)=O (stereo not given)	.	0.7
CCOC(=O)c1cnc(SC)nc1Nc1ccc(Cl)c(Cl)c1	-0.61	.
Cc1c(NC(=O)c2cc(-c3cccc(Br)c3)nc3ccccc23)c(=O)n(-c2ccccc2)n1C	-0.03	.
NNc1c(F)c(F)nc(F)c1F	.	0.7
CS(=O)(=O)/C(C#N)=C/Nc1cnccn1	-2.2	-0.35
O=C(Cn1cnc2ccccc2c1=O)Oc1cccc(NC2=NS(=O)(=O)c3ccccc32)c1	0.65	.
Cc1ccc(C(=O)CCc2ccc(N)cc2)cc1	-0.73	-1.1
O=C(C1c2ccccc2Oc2ccccc21)N(Cc1ccco1)C1CCS(=O)(=O)C1 (stereo not given)	.	0.3
Cn1nnc(-c2ccc(C(=O)O)cc2)n1	-0.48	0.1
CCOC(=O)N1C(=O)c2cc(OCC)ccc2S1(=O)=O	-0.29	.
CCOC(=O)c1cc2c(=O)n3ccccc3nc2n(CC2CCCO2)c1=NC(C)=O (stereo not given)	39	1.1
CCc1n[nH]c(=O)n1Nc1ccccc1	0.23	0.7
COC(=O)c1ccc2c(=O)nc3n(c2c1)Cc1ccccc1-3	1.3	-0.2
COc1ccc(-c2cc(C(F)(F)F)n3nc(C(=O)N4CCCCC4C)cc3n2)cc1 (stereo not given)	5.4	-0.05
Cn1c(S(=O)(=O)CC(N)=O)nc2ccccc21	-0.5	0.4
COc1ccc(-n2cc(C(=O)Nc3ccc(C(=O)N4CCCCC4)cc3)nn2)cc1	0.8	-0.15
CCC(Oc1cccc(Cl)c1)C(=O)NN1CCOCC1 (stereo not given)	-0.11	-0.65
COc1cccc(/C=C2\SC(=S)N(CCC(=O)N3c4ccccc4Sc4ccccc43)C2=O)c1	-0.25	.
CC(=O)NC1(c2ccccc2)CCN(C)C(c2ccccc2)C1C (stereo not given)	.	0.85
CCOC(=O)c1sc(=S)n(-c2cccc(C(F)(F)F)c2)c1N	-0.15	.
Cc1nn(C)c(C)c1Sc1nccc(-c2cccnc2)n1	-0.04	-0.7
CCOC(=O)C1=CC2(SC=C(C(=O)OCC)S2)C2=C(S1)C(C)(C)Nc1c(OCC)cccc12 (stereo not given)	-0.2	.
CN1C(=O)/C(=C/c2cn(Cc3ccccc3)c3ccccc23)c2ccccc21	0.17	0.85
Cc1ccc(S(=O)(=O)CCN2CCC(O)(c3ccccc3)CC2)cc1	-0.13	-0.2
CCc1ccc2nc(N3CCC(C(=O)NCC4COc5ccccc5O4)CC3)sc2c1 (stereo not given)	-0.83	.
CN(CCO)C(C(=O)Nc1ccc(F)cc1)c1ccccc1 (stereo not given)	.	0.9
Cc1nc2ccc3nc(NC(=O)c4ccc(S(=O)(=O)N5CCCCC5)cc4)sc3c2s1	0.54	.
N#CC1=C2Sc3ccccc3N2CC1=O	.	-0.45
O=C(COC(=O)/C=C/c1ccc(S(=O)(=O)N2CCCCCC2)cc1)Nc1ccc2[nH]c(=O)[nH]c2c1	.	-0.05
Cc1c(C(=O)Nc2ccccc2)cnn1-c1ccccc1	-1.4	2.9
Nc1nc2ccc(NC(=O)c3ccccc3)cc2s1	-0.3	.
O=C(NCCCc1ccccc1)c1ccc(O)cc1	-0.23	2
Cc1ccc(C2C(C#N)=C(N)Nc3oc(C)nc32)cc1 (stereo not given)	-0.19	-0.4

Bioassay records deposited in PubChem by ICCB-Longwood Screening Facility, Harvard Medical School.

Rows were taken by chance; about 0.41% have a hit in one of these screens.
